miR-21 FLuc – qHTS Assay for Modulators of miRNAs and/orActivators of miR-21. HeLa miR-21 FLuc reporter, luciferase, 48 h. Potency, µM (highest dose often 38.3 µM), without a hit: at the highest dose reporter change, positive = more light. 340,000 tested, under 10 active. AID 2288, 2010; active = well fitted rising curve with a large enough effect; inconclusive = small, poorly fitted or top-dose-only effect; inactive = no such curve, though single readings can be large or run the other way;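 note: % of control where 0% means no effect; miR-21 action dims this reporter so a rising signal means less miR-21 action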
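HeLa miR-21-FLuc reporter line, endogenous miR-21; 2000 cells/well in DMEM/10% FBS; compound titration up to ~40uM final, 48 h, 37 degree Celsius; luciferase detection reagent, 15 min lysis, CCD luminescence.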
GLA inh pH 4.5 – qHTS Assay for Inhibitors of Human alpha-Galactosidase at pH 4.5; purified enzyme, 4-MU-alpha-Gal fluorescence, pH 4.5; activity change, negative = inhibition, % at 105 µM; 230,000 tested, under 10 active; AID 1467, 2008; inconclusive = small, poorly fitted or top-dose-only inhibition, or a rising curve; inactive = flat fitted curve, though single readings scatter; no compound was filed as active;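 note: 0% = full activity with enzyme and -100% = basal without enzyme; dose as in the result columns while the protocol names 77 µM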
Rango-impB inh – qHTS Assay for Inhibitors of Rango (Ran-regulated importin-beta cargo) - Importin beta complex formation. Importin subunit beta-1 (Homo sapiens), Q14974. Rango CFP/YFP FRET sensor + importin beta, 45 min. Potency, µM (top dose mostly 92.2 µM), inactives show at the top dose inhibition of complex formation. actives 0.031% (n = 340,000). AID 540263, 2011; active = rising FRET ratio curve, often small or poorly fitted; inconclusive = mostly compound fluorescence or quenching in the first reads; inactive = flat curves in all reads;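 note: potency is the fitted concentration of half-maximal effect; 0% = DMSO wells and 100% = buffer wells lacking importin beta; nearly all actives have a fitted effect of over 15% in size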
Target sequence (Q14974 whole entry, looked up): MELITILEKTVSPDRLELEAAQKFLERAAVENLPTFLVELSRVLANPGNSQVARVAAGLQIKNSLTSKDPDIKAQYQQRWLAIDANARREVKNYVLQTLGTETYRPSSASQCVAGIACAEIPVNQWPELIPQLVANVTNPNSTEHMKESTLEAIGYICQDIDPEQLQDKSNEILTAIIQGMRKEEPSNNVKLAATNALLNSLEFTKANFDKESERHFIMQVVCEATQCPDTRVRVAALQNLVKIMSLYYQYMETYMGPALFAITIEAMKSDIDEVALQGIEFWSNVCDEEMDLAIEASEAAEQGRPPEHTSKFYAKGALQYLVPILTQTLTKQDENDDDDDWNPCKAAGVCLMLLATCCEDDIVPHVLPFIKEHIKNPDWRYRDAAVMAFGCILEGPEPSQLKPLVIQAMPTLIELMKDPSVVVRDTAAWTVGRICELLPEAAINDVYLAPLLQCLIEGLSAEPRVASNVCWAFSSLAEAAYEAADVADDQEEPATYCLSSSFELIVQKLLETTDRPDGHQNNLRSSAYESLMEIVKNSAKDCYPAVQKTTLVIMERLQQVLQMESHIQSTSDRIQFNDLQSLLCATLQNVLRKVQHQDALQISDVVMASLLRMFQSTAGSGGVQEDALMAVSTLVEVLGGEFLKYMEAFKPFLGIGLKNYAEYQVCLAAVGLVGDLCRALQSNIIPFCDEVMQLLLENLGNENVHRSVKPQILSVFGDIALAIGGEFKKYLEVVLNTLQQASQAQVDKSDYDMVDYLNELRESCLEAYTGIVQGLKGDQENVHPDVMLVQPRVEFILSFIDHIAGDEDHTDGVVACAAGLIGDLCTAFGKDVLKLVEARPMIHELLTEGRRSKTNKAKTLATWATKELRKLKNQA
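FRET biosensor Rango (snurportin 1 IBB between N-terminal EYFP and C-terminal Cerulean), 50 nM in PBS/1 mM DTT/0.02% Tween-20/0.1% BSA, preincubated 5 min RT with compound; 0.125 microM importin beta added, 45 min RT, CFP/YFP FRET ratio read.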
Rango release inh – qHTS Assay for Inhibitors of RanGTP induced Rango (Ran-regulated importin-beta cargo) - Importin beta complex dissociation | Biochemical FRET Rango-importin beta, RanGTP-induced dissociation | Potency, µM (doses to about 46.1 µM), without a hit: at the highest dose activity change, negative = inhibition | actives 0.071% (n = 340,000) | AID 540253, 2011; active means falling FRET ratio curve, often poorly fitted, with flat reads before Ran was added; inconclusive means other falling curves, or compound fluorescence or quenching; inactive means flat or rising ratio curve;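 note: potency is the fitted concentration of half-maximal effect; % of control where 0% means no effect; nearly all actives have a fitted effect of over 45% in size; -100% = wells without RanGTP and RCC1; the record marks most hits as doubtful in a second field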
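Recombinant Rango FRET biosensor (EYFP–snurportin 1 IBB–cerulean CFP10) at 0.1 uM premixed with 0.25 uM importin beta in PBS, 1 mM DTT, 0.02% Tween-20, 0.1% BSA. Compound added 5 min; RanGTP-RCC1 (0.6 uM Ran, 2 mM GTP, 0.2 uM RCC1) then triggers release, read at 45 min.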
* marks the source's active call; other numbers are inactive results; u = inconclusive; x = no result given; & = joins results of further samples; [ ] = dose if it differs, or a comment.

#	miR-21 FLuc	GLA inh pH 4.5	Rango-impB inh	SMILES	Rango release inh
1	1%	-2	-0.2%	O=C1CC(/C=C/c2cccnc2)=Nc2ccccc2N1	2%
2	-3%	3	0.3%	N#CCOC(=O)/C=C/c1ccc2c(c1)OCO2	6%
3	x	x	u	COC(=O)c1c(C)[nH]c(C(=O)OC(C)C(=O)N(C)C2CCCCC2)c1C (centres undefined)	-2%
4	-36%	0	-2.5%	COc1ccc(NC(=O)CSc2nccn2-c2ccccc2)cc1	26%
5	u	-2	-0.1%	COc1ccc(C2/C=C\CN(C(=O)Nc3ccc(C(F)(F)F)cc3)CC(=O)N2Cc2ccc(F)cc2)cc1 (centres undefined)	-12%
6	-4%	x	u	COc1cc(NC(=O)c2cc(S(=O)(=O)N3CCCCC3)c[nH]2)cc(OC)c1	-7%
7	-1%	x	-1.1%	COc1ccc(NC(=S)N2CCC(NC(=O)c3cccc(C)c3)CC2)cc1	3%
8	u	-7	-1.1%	COc1ccc(-c2nc(CN3CCCCC3c3nccn3C)c(C)o2)c(C)c1C (centres undefined)	0%
9	0%	10	-3.6%	Cn1ccnc1SCCNC(=O)CCc1nnc(CCCCc2ccccc2)o1	-18%
10	x	x	2.0%	O=C(NCc1ccccn1)c1ccccc1OCc1ccc(F)cc1	2%
11	-7%	x	u	Cc1c(CNCCc2ccccc2Cl)c(C(=O)O)c(C)n1-c1ccccc1	-8%
12	1%	-2	2.9%	O=C(NCCCn1ccnc1)c1ccc(S(=O)(=O)N2CCOCC2)cc1	4%
13	-12%	x	-1.4%	CC(=O)CCc1ccc(OCCCOc2cccc3cccnc23)cc1	-7%
14	-13%	x	0.3%	Cc1sc2ncnc(NCC(O)c3ccccc3)c2c1C (centres undefined)	-7%
15	-3%	x	0.2%	NC(=O)CCn1c(C(=O)c2cc(Cl)c(N)c(Cl)c2)c2ccccc2[n+]1[O-]	-12%
16	-20%	-16	2.0%	O=C(O)c1ccc(/C=N/NC(=O)c2cc(-c3cccs3)nc3ccccc23)cc1	-6%
17	4%	x	u	O=C(NCCN1CCOCC1)c1ccc(/C=C2\Sc3ccccc3N(Cc3ccc(F)cc3)C2=O)cc1	u
18	-3%	-15	0.6%	COC(=O)/C=C1\S/C(=N/NC(=O)c2ccccc2)NC1=O	1%
19	13%	x	1.1%	COc1ccc(OC)c(S(=O)(=O)N/N=C\c2cn(CC(N)=O)c3ccccc23)c1	0%
20	0%	1	1.7%	Cc1ccc(N=C(N)N=C(N)N)cc1	7%
21	0%	0	-3.9%	CCOC(=O)c1c(-c2ccc(C)o2)csc1NC(=S)NC(=O)N(C)C	-11%
22	2%	2	-1.6%	CCOC(=O)Cn1c(=O)oc2cc(S(=O)(=O)NCc3cccs3)ccc21	-9%
23	-16%	-4	1.1%	CCNc1nc(CN2CCOCC2)nc2sc3c(c12)CCC3	7%
24	0%	x	u	CC(=O)Nc1ccc(S(=O)(=O)NCc2nc(-c3cccc(C)c3)no2)cc1	u
25	x	x	1.4%	CN(Cc1ccccc1)C(=O)COC(=O)COc1ccc(Cl)cc1	-1%

Brought forward from above: 2 entries, followed by the next part.
#	miR-21 FLuc	GLA inh pH 4.5	Rango-impB inh	SMILES	Rango release inh
24	0%	x	u	CC(=O)Nc1ccc(S(=O)(=O)NCc2nc(-c3cccc(C)c3)no2)cc1	u
25	x	x	1.4%	CN(Cc1ccccc1)C(=O)COC(=O)COc1ccc(Cl)cc1	-1%
26	-78%	-5	5.6%	COc1ccc(/C(N)=N/OC(=O)c2ccco2)cc1OC	-1%
27	-3%	-1	-3.4%	CCCOc1ccc(N2C(=O)CC(NCc3ccncc3)C2=O)cc1 (centres undefined)	-10%
28	x	x	3.0%	CSc1ccccc1NC(=O)CN(C)C(=O)COc1cccc2cccnc12	0%
29	-2%	-8[21.1 µM]	3.7%	CCCCNC(=O)C1CCC(CNc2nc(=S)[nH]c3ccccc23)CC1 (centres undefined)	9%
30	1%	x	4.3%	CC(C)CCNC(=O)c1cn(CC(C)C)c(=O)c2c1c1ccccc1n2C	7%
31	-3%	-6	1.7%	CCC(CC)c1nc2cc(OC)c(OC)cc2c(=O)o1	6%
32	-7%	-3	x	CC(NC(=O)Cn1nnc(-c2ccncc2)n1)c1ccccc1 (centres undefined)	x
33	-2%	-4	0.4%	N#CCCn1cc(C(=O)O)c(-c2cccs2)n1	3%
34	29%	2	-5.1%	COc1ccc(-c2c[n+]3c(n2-c2ccccc2)SCC3)cc1	-10%
35	-5%	-9	0.3%	COc1ccc(C(CNC(=O)c2ccccc2C)N2CCCC2)cc1 (centres undefined)	1%
36	1%	1	1.5%	Oc1c(Br)cc(/C=N/NC(=S)NCC2CCCO2)cc1Br (centres undefined)	-3%
37	0%	x	1.9%	O=C(Nc1cnccn1)c1ccc(Cl)cc1	12%
38	3%	x	3.5%	CC(Sc1nnc(-c2ccncc2)n1C)C(=O)Nc1nccs1 (centres undefined)	-2%
39	0%	-6	0.2%	Cc1ccc(/C=N/NC(=O)C[n+]2ccccc2)s1	-12%
40	-4%	5	6.8%	O=C(Cc1cccs1)N(c1ccccc1)C1C=CS(=O)(=O)C1 (centres undefined)	16%
41	-10%	-1	0.6%	CS(=O)(=O)N(CC(=O)NC1CC2CCC1C2)c1ccc(Oc2ccccc2)cc1 (centres undefined)	3%
42	-1%	x	u	O=C1C(=O)N(CCO)C(c2ccccc2[N+](=O)[O-])/C1=C(\O)c1ccccc1 (centres undefined)	-22%
43	-1%	1	0.8%	CCOc1ccccc1-n1nnnc1SCC(=O)NCc1ccco1	10%
44	-7%	x	1.1%	Cc1ccc(C2=NS(=O)(=O)N(C)C(C(=O)Nc3ccc4c(c3)OCO4)=C2)cc1	24%
45	-3%	4	0.7%	CC1CN(Cc2nc3c(c(=O)n(C)c(=O)n3C)n2CCCO)CC(C)O1 (centres undefined)	-1%
46	-26%	-9	0.2%	Cc1ccc(SCC(=O)Nc2ncc(C)s2)cc1	24%
47	-2%	-4	-0.8%	CCCn1c(SCC(=O)Nc2ccc(S(=O)(=O)N(C)C)cc2)n[nH]c1=O	-7%
48	x	x	4.4%	COc1cc(C)c(C(=O)Oc2cc(C)c(C(=O)O)c(O)c2C)c(O)c1C(=O)O	-9%
49	7%	x	5.8%	CCOC(=O)Cc1csc(N/N=C/c2cccc([N+](=O)[O-])c2)n1	1%
50	-1%	x	2.9%	CC1=C(C(=O)OCc2ccccc2)C(c2cccc(F)c2)NC(=O)N1 (centres undefined)	31%

Seven entries picked at random from those above:
#	miR-21 FLuc	GLA inh pH 4.5	Rango-impB inh	SMILES	Rango release inh
10	x	x	2.0%	O=C(NCc1ccccn1)c1ccccc1OCc1ccc(F)cc1	2%
33	-2%	-4	0.4%	N#CCCn1cc(C(=O)O)c(-c2cccs2)n1	3%
1	1%	-2	-0.2%	O=C1CC(/C=C/c2cccnc2)=Nc2ccccc2N1	2%
3	x	x	u	COC(=O)c1c(C)[nH]c(C(=O)OC(C)C(=O)N(C)C2CCCCC2)c1C (centres undefined)	-2%
4	-36%	0	-2.5%	COc1ccc(NC(=O)CSc2nccn2-c2ccccc2)cc1	26%
11	-7%	x	u	Cc1c(CNCCc2ccccc2Cl)c(C(=O)O)c(C)n1-c1ccccc1	-8%
26	-78%	-5	5.6%	COc1ccc(/C(N)=N/OC(=O)c2ccco2)cc1OC	-1%

Continuation.
#	miR-21 FLuc	GLA inh pH 4.5	Rango-impB inh	SMILES	Rango release inh
51	-3%	x	-2.9%	Cc1ccc(C)c(NS(=O)(=O)c2cc(C(=O)NCC3CCCO3)ccc2C)c1 (centres undefined)	-8%
52	6%	-7&-3	2.5%	N#Cc1ccc(C23CC4(C2)[C@H](CN(Cc2ccc(C(F)(F)F)cc2)[C@@H]4c2ccccc2)C3c2ccc(C(F)(F)F)cc2)cc1 (some centres undefined)	-1%
53	-2%	-1	-2.5%	NS(=O)(=O)c1ccc(NC(=O)COC(=O)CCNC(=O)NC23CC4CC(CC(C4)C2)C3)cc1	5%
54	-15%	x	0.1%	NC(=O)c1nsc(C(=O)N(c2ccccc2)C(C(=O)NC2CCCCC2)c2ccc(O)cc2)c1N (centres undefined)	4%
55	-11%	5	u	O=C(c1cc(COc2ccc(F)cc2Cl)on1)N1CCc2ccccc2C1	1%
56	-15%	-1	-0.6%	COc1cc(OC)cc(C(=O)N2CCN(C(=O)COc3ccc4ccccc4c3)CC2)c1	-2%
57	-9%	-4	-2.3%	Cc1cccc(C)c1NC(=O)C1(NC(=O)c2cnccn2)CCCCC1	14%
58	9%	x	-5.3%	Cc1nc2ccccc2n1Cc1ccc(Cl)cc1	-9%
59	0%	10	u	C=C(C)CNC(=S)Nc1cccc(N)n1	-3%
60	2%	2	0.5%	CCN(CC)C(=O)c1c(-c2ccccc2)oc2ccc(OC)cc12	0%
61	-23%	x	-0.9%	C/C(=N\NC(=O)c1cc(C)[nH]n1)c1ccc(-c2ccccc2)cc1	16%
62	2%	x	0.0%	Cc1ccccc1-c1nc(CS(=O)(=O)CC(=O)NC2CCCCC2C)c(C)o1 (centres undefined)	2%
63	-3%	-24	-4.5%	CCOC(=O)c1[nH]c2cc3c(cc2c1NC(=O)CN1CCc2ccccc2C1)OCO3	5%
64	-2%	x	-0.4%	O=C(O)Cn1nc(-c2ccccc2)ccc1=O	11%
65	x	x	-0.7%	O=S(=O)(c1ccc(SCCOc2cccc(Br)c2)nc1)N1CCCC1	0%
66	x	x	3.1%	COCCCn1c(SCC(=O)Nc2oc(C)c3c(C)n[nH]c(=O)c23)nc2sc3c(c2c1=O)CCC3	-3%
67	19%	6	0.4%	O=C(Nc1ccc(N2CCCCC2)c(Cl)c1)c1ncn[nH]1	-2%
68	x	x	-0.5%	CCN(c1ccccc1)S(=O)(=O)c1ccc(OC)c(NC(=O)C2CC2)c1	1%
69	-1%	-4	-1.0%	COc1cccc(SCC2(O)CCN(C(=O)c3ccc(Cl)cc3)CC2)c1	-4%
70	-1%	x	-0.7%	O=C(CSc1nnc(CNC(=O)c2cccc(C(F)(F)F)c2)o1)NCc1ccco1	-5%
71	0%	-1	4.4%	CS(=O)(=O)c1ccc(SCC(=O)NC2CCS(=O)(=O)C2)c([N+](=O)[O-])c1 (centres undefined)	-4%
72	0%	-2	-4.3%	CCN(CC)CCNC(=O)c1ccc(NS(=O)(=O)c2ccc3c(c2)OCCO3)cc1	8%
73	x	x	1.7%	CC(C)N(Cc1nnc(-c2ccc(Cl)cc2)o1)C(=O)c1cc2ccccc2o1	-13%
74	-1%	3	-2.4%	COc1cc(OC)cc(C(=O)N2CCN(C(=O)c3cccc(F)c3)CC2)c1	-14%

Only part of the results is shown; rates above refer to the full screens.
